PrP 5UTR inh = inhibition of PrP 5' UTR reporter expression. cell-based PrP 5' UTR mRNA reporter, plate reader. inhibition, % (test concentration not listed). 340,000 compounds, 0.35% hits. AID 488862, 2010;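 active = every replicate at 50% or more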;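 note: 0 = median of the neutral control wells; tested in H4 reporter cells; numbers are from one replicate; inactives centre near -14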
ugtP null kill = growth inhibition of ugtP-null S. aureus, primary screen, RN4220 ugtP deletion, OD600 | 16 h; some inactives read as strong as hits | growth inhibition, % (test concentration not listed) | 330,000 compounds, 0.54% hits | AID 1259309, 2017;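 active = z-score under -3 and OD600 up to 0.15 on both plates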;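 note: plate controls were untreated wells for no effect and antibiotic for full effect; wells of about 80 µL received 100 nL stock; the first replicate is given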
BJeLR lethal = MLPCN primary cell-based screen for lethality selective to Ras in HRASV12 cells | 300,000 compounds, 0.17% hits | BJeLR (HRASV12) viability, CellTiter-Glo ATP luminescence, 48 h; reference of the scale not given here | inhibition, % (test concentration not listed);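 active = replicate mean above 50%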;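 note: 50 nL library stock added to about 25 µL; numbers are from one replicate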
RN4220 kill = growth inhibition of S. aureus RN4220, primary screen, OD600; inhibition, % (concentration not given with the values); 330,000 compounds, 0.33% hits; AID 1259311, 2017; 16 h;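 active = z-score of -3 or lower and OD600 up to 0.18 on both plates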;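 note: plate controls were untreated cells for no effect and reference antibiotic for full effect; stock transfer was 100 nL into about 80 µL; one replicate is shown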
Mtb hypoxia rep = PubChem AID 1159583. M. tuberculosis hypoxia-regulated fluorescent reporter, fluorescence. 300,000 compounds, 0.1% hits. fluorescence inhibition, % (concentration not given with the values);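 active = 35 to 45% if threefold the growth effect, above 45% if 1.5-fold the growth effect; inactive = the rest, general growth blockers included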;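 note: wells of about 50 µL received 100 nL stock; 0% = vehicle wells and 100% = reference inhibitor wells; whole bacteria with a GFP reporter of the hypoxia response; strong numbers were not always called active; many hits fall short of the cut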
Bead autofluor = flagged as autofluorescent in microsphere protease counterscreen. compound autofluorescence counterscreen, microsphere flow cytometry; stronger effect = higher value. fluorescence intensity (concentration not given with the values). 360,000 compounds, 3.1% hits. AID 624483;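 active = at least 3 SD above the mean of all compounds, about 16000 in these data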;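 note: 100 nL of 1 mM stock went into each well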
Mtb hypoxia rep growth = further read-out of Mtb hypoxia rep, marked with its call; growth inhibition, %; measured here: M. tuberculosis growth (absorbance);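 0% = vehicle and 100% = reference antibiotic; read after six days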
* marks the source's active call; other numbers are inactive results; x = no result given.

SMILES	PrP 5UTR inh	ugtP null kill	BJeLR lethal	RN4220 kill	Mtb hypoxia rep	Mtb hypoxia rep growth	Bead autofluor
CC(C)(C)n1nnnc1C(c1cccs1)N1CCN(Cc2ccccc2)CC1 (centres undefined)	-23	9	-6	2.8	6	3	7028
CC1CCc2c(sc(Nc3nc4c(F)cccc4s3)c2C(N)=O)C1 (centres undefined)	-19	19	0	37	8	5	2728
COCC(C)NC(=O)COc1nncc2ccccc12 (centres undefined)	-2	x	2	x	x	x	4704
Cc1ccccc1OCCCSc1nc2ccccc2[nH]1	-39	-13	-25	2.7	13	0	8912
O=C(NN=Cc1ccccc1O)C1(O)c2ccccc2-c2ccccc21	x	1	x	3.0	1	2	x
Cc1nn(Cc2c(F)cccc2Cl)c(C)c1[N+](=O)[O-]	-3	7	13	5.5	12	-2	4611
CCOC(=O)c1nn(C)c2[nH]c(=O)n(C)c(=O)c12	-6	-2	x	-0.7	-2	11	4271
NS(=O)(=O)c1ccc(CCNC(=O)Nc2ccc(Cl)c(Cl)c2)cc1	8	4	8	-4.0	-1	5	16607*
COc1ccc(Oc2nc(-c3ccncc3)nc3ccccc23)cc1	-49	3	5	0.5	-10	-7	x
CCN(CC)c1ccc(C2Nc3cccc4cccc(c34)N2)cc1	-56	x	-13	x	x	x	3115
CCCCn1c(/C=N/Nc2nc3ccccc3[nH]2)nc2ccccc21	-49	x	-12	x	x	x	1746
COc1ccc(CN2CCN(c3ccccn3)CC2)cc1OCc1ccccc1	x	27	-5	1.0	7	9	11606
Nc1c([N+](=O)[O-])cc(F)c(N2CCNCC2)c1Br	-3	6	-1	1.3	7	1	2396
CC(=NNC(=O)c1cccnc1)c1ccc(-c2ccccc2)cc1	x	4	x	2.3	7	-3	x
CCOC(=O)C1=C(C)OC(N)=C(C#N)C1c1cc(F)ccc1F (centres undefined)	-12	1	-1	8.0	-1	7	7791
CC(C)COC(=O)OCN1C(=O)CN(CCN2CC(=O)N(COC(=O)OCC(C)C)C(=O)C2)CC1=O	-13	-1	x	1.6	0	7	6099
CCc1cccc2c(C#N)cn(CCOc3ccccc3OC)c12	-13	-5	4	9.7	6	0	4561
CCN1CCN(c2cc(-c3ccccc3)nc3cc(-c4cccc(F)c4)nn23)CC1	5	-9	1	-5.0	x	x	2688
COc1ccc(-c2nc3c(c(=O)[nH]c(=O)n3Cc3ccccc3)n2Cc2ccccc2)cc1	-20	-3	-5	-1.8	2	9	10752
CCC(C)NC(=S)N1CCN(Cc2ccc3c(c2)OCO3)CC1 (centres undefined)	-19	-6	2	4.4	14	12	5455
C#CCNC(=O)C(Cc1ccc(C(=O)c2ccccc2)cc1)NC(=O)OC(C)(C)C (centres undefined)	x	-1	x	6.9	-1	-3	x
CCN(CC)CC(=O)Nc1nc(-c2ccc(Cl)cc2)cs1	-31	23	4	-9.7	x	x	2681
CC(C)[C@H](NC(N)=O)C(=O)NCCc1ccc(Cl)cc1	-14	7	1	0.8	7	-5	3212
CCCCn1c(N)c(N(CC(C)C)C(=O)c2cccc(S(=O)(=O)N3CCN(C(C)=O)CC3)c2)c(=O)[nH]c1=O	-3	6	-7	1.6	-3	-3	4987

Next section; the last 4 above are carried over.
SMILES	PrP 5UTR inh	ugtP null kill	BJeLR lethal	RN4220 kill	Mtb hypoxia rep	Mtb hypoxia rep growth	Bead autofluor
C#CCNC(=O)C(Cc1ccc(C(=O)c2ccccc2)cc1)NC(=O)OC(C)(C)C (centres undefined)	x	-1	x	6.9	-1	-3	x
CCN(CC)CC(=O)Nc1nc(-c2ccc(Cl)cc2)cs1	-31	23	4	-9.7	x	x	2681
CC(C)[C@H](NC(N)=O)C(=O)NCCc1ccc(Cl)cc1	-14	7	1	0.8	7	-5	3212
CCCCn1c(N)c(N(CC(C)C)C(=O)c2cccc(S(=O)(=O)N3CCN(C(C)=O)CC3)c2)c(=O)[nH]c1=O	-3	6	-7	1.6	-3	-3	4987
CSc1ccccc1NC(=O)c1cnc2n(c1=O)CCS2	-27	2	-8	2.8	3	4	5689
CCCCN1C(=O)C2NN=C(C(=O)OCC)C2C1=O (centres undefined)	-27	4	-6	1.0	3	5	4121
Cc1csc(NC(=O)c2cc(-c3ccccc3)nc3ccccc23)n1	7	-2	18	18	7	-2	2102
COc1ccc(-c2cnc(SCC(=O)Nc3nc(C(C)(C)C)cs3)n2Cc2ccco2)cc1	-11	-6	1	0.5	-11	0	3459
CP(=O)(O)CN1CCCCC1	-15	3	5	5.6	8	-1	3756
O=C(NNC(=S)Nc1ccccc1)c1ccco1	38	1	-4	3.9	0	14	22369*
O=C(CSc1nnc(-c2ccco2)o1)NC1CC2CCC1C2 (centres undefined)	-23	5	0	2.2	x	x	1968
O=C(COC(=O)c1c(Cl)ccc(Cl)c1Cl)NCC1CCCO1 (centres undefined)	-19	2	x	4.0	12	12	5712
COc1ccc(OC)c2[nH]c(=O)c(CCNC(=O)C(=O)c3c(C)[nH]c4ccccc34)cc12	-13	6	-12	-1.1	2	7	2542
CCc1ccccc1OCC(=O)Nc1cc(S(=O)(=O)N2CCOCC2)ccc1N1CCCCC1	-19	-6	x	6.5	-6	-2	6300
C#CCOCCOCCOCCNc1nc(N2CCN(C(=O)[C@H](CCC(=O)O)n3cc(C(N)CC(C)C)nn3)CC2)nc(N2CCN(C(=O)[C@H](CCC(=O)O)n3cc(C(N)[C@H](C)CC)nn3)CC2)n1 (some centres undefined)	-9	x	8	x	x	x	3830
COc1ccccc1CNC(=O)C(=O)Nc1nccs1	-19	5	-1	5.0	16	8	3566
O=C(Nc1ccc2c(c1)OCCO2)C1CCC1	-22	0	1	0.5	1	-1	9818
Cc1ccccc1OCC(=O)N/N=C1\SCC(=O)N1Cc1ccccc1	-30	x	-9	x	x	x	2551
COc1ccc(CCN(C)C(=O)c2cc(-c3ccccc3)nc3ccc(C)cc23)cc1OC	-10	3	9	0.4	11	-10	4490
CCCc1cc(C(=O)NCc2cccs2)no1	-41	-4	1	-7.7	x	x	5853
CCOC(=O)/C(C#N)=C/c1cc(C)n(-c2ccc(Br)cc2)c1C	x	-4	-5	3.0	-12	0	x
CC(=O)NS(=O)(=O)c1ccc(NC(=S)NC(=O)c2ccco2)cc1	-28	1	10	0.0	x	x	2855
Cn1c(SCC(=O)N2CCOCC2)nnc1-c1cccc(NC(=O)c2ccccc2F)c1	-18	7	-5	1.7	3	8	20837*
C#CCOCCOCCOCCNc1nc(N2CCN(C(=O)[C@H]([C@@H](C)O)n3cc(CCCCN)nn3)CC2)nc(N2CCN(C(=O)[C@H](CCCCN)n3cc(CC(C)O)nn3)CC2)n1 (some centres undefined)	-23	0	x	6.1	2	3	2986
Cc1ccccc1C(c1ccccc1Cl)N(C)C (centres undefined)	-17	9	x	3.0	9	7	3809
COc1cccc(-c2cccc(NC(=O)C3CCN(Cc4ccon4)CC3)c2)c1	-12	6	-1	3.5	7	3	5563
CCOc1ccc(NS(=O)(=O)c2cc(C(=O)N(CC)CC(=O)NCc3cccs3)ccc2C)cc1	-18	16	-5	-1.8	-2	1	5199
Cc1ccc(/C=N/n2c(COc3ccccc3)n[nH]c2=S)cc1	-18	x	-2	x	x	x	3553
Cc1cnc(C(=O)Nc2ccccc2-c2ccc(C)o2)cn1	-3	-11	6	-4.6	3	2	2819
CC(=O)Oc1ccc(C(=O)Nc2ccc(S(=O)(=O)N3CCOCC3)cc2)cc1	0	1	-19	-4.5	-1	7	3683
C=CCSc1nnc(NC(=O)COc2ccc3ccccc3c2)s1	3	11	1	2.6	-3	-5	10282
Cc1ccccc1CN1C(=O)[C@H]2Cc3c([nH]c4ccccc34)C(C)(C)N2C1=O	-17	x	-6	x	x	x	3624
COc1ccc(N=Nc2[nH]c3ccc(C)cc3c2O)cc1	-32	-6	-5	2.3	0	2	2557
COc1ccc(NC(=O)/C(C#N)=C/C=C/c2ccco2)cc1	-23	2	2	7.2	15	4	7958
O=C(O)c1ccc(CNCc2cc(Cl)ccc2O)cc1	-20	-4	x	9.4	15	8	3487
CC(Sc1ccccc1)C(=O)Nc1ccccc1C(=O)N1CCOCC1 (centres undefined)	-32	18	6	22	-6	-11	2861
CCOC(=O)N1CCC(NC(=O)C(NS(=O)(=O)c2ccc3c(c2)CCN3C(=O)CC)C(C)C)CC1 (centres undefined)	-18	6	3	4.7	10	0	5107
O=C(O)CC1S/C(=N/N=C/C2CC=CCC2)NC1=O (centres undefined)	-56	x	3	x	x	x	4088
CC/C(=C\C(=O)c1cccnc1)Nc1ccc(C)c(C)c1	-6	22	2	15	7	1	2637
CC(C)(C)C1=Nn2c(nnc2-c2ccco2)SC1	-17	0	-9	1.8	3	6	3540
O=C1NC(=O)c2cc(NC(=O)C3COc4ccccc4O3)ccc21 (centres undefined)	-2	9	5	5.0	7	5	6150
COc1ccc(S(=O)(=O)N2CCCCCC2)cc1C(=O)N(C)CC(=O)Nc1ccccc1Cl	-12	6	5	3.8	5	13	5321
CC(C(=O)OCC(=O)c1ccc(Br)cc1)N1C(=O)C2C3CCC(C3)C2C1=O (centres undefined)	-2	10	-8	4.3	5	-4	4247
COc1ccccc1NC1=NC2(CCCC2)N=C(N)N1	4	-3	6	3.8	x	x	4782
CCCCn1c(N)c(N(CC(C)C)C(=O)c2cc(-c3ccc(OC)c(OC)c3)nc3ccccc23)c(=O)[nH]c1=O	2	-3	-11	-0.2	-5	-14	x
Cc1ccccc1NC(=S)/C(=C(\[O-])c1ccc(C)c([N+](=O)[O-])c1)[n+]1ccccc1	-1	6	-16	4.7	3	0	2635
O=C1NC(=O)N(Cc2ccccc2)C(=O)/C1=C\c1ccco1	3	5	-5	6.7	7	-2	5727
Clc1ccc(N2CCN(c3ncnc4c3oc3ccccc34)CC2)cc1	-44	6	-1	7.3	13	9	4201
N#Cc1nc(-c2ccco2)oc1N1CCN(c2cccc(Cl)c2)CC1	-3	-18	-1	5.7	3	1	9130
COc1ccc(N2CCN(c3ncnc4c3[nH]c3ccccc34)CC2)cc1	-9	-5	8	-7.3	6	8	2816
CCOc1ccccc1NC(=O)C1CCN(C(=O)NCc2ccccc2)CC1	-29	-10	-10	-0.9	4	4	3418
Cc1cc(CNC(=O)C2CCC(=O)N(Cc3ccccc3F)C2)on1 (centres undefined)	-4	12	-5	5.6	3	0	6298

Laid out differently: five of the compounds above
Value order – PrP 5UTR inh, ugtP null kill, BJeLR lethal, RN4220 kill, Mtb hypoxia rep, Mtb hypoxia rep growth, Bead autofluor
COc1ccccc1NC1=NC2(CCCC2)N=C(N)N1
    4, -3, 6, 3.8, x, x, 4782
N#Cc1nc(-c2ccco2)oc1N1CCN(c2cccc(Cl)c2)CC1
    -3, -18, -1, 5.7, 3, 1, 9130
CCOc1ccccc1NC(=O)C1CCN(C(=O)NCc2ccccc2)CC1
    -29, -10, -10, -0.9, 4, 4, 3418
O=C1NC(=O)N(Cc2ccccc2)C(=O)/C1=C\c1ccco1
    3, 5, -5, 6.7, 7, -2, 5727
CCCCn1c(N)c(N(CC(C)C)C(=O)c2cc(-c3ccc(OC)c(OC)c3)nc3ccccc23)c(=O)[nH]c1=O
    2, -3, -11, -0.2, -5, -14, x

Further structures:
SMILES	PrP 5UTR inh	ugtP null kill	BJeLR lethal	RN4220 kill	Mtb hypoxia rep	Mtb hypoxia rep growth	Bead autofluor
COc1ccc(S(=O)(=O)N2CCN(C(=O)C3CCC3)CC2)cc1	-14	-3	-17	0.1	3	1	6563
CC(C)Cn1cnc2sc3c(c2c1=N)CCCC3	-19	-3	0	-2.0	x	x	2653
CCN(C(=O)COC(=O)CCCN1C(=O)c2cccc3cccc(c23)C1=O)C1CCS(=O)(=O)C1 (centres undefined)	-11	7	-4	2.2	3	-5	5437
CSCc1ccc(C(=O)Nc2cc(C)cc(C)c2)cc1	-45	16	2	-0.3	13	8	2553
COc1ccccc1-c1cc(C(=O)NCCCn2ccnc2)no1	-25	0	0	3.7	5	9	10911
O=C(CNC(=O)c1ccccc1Br)NN=Cc1cccs1	x	4	x	4.2	2	10	x
CCOC(=O)c1c(-c2ccccc2)oc2ccc(OC(C)C(=O)O)cc12 (centres undefined)	-6	x	-2	x	x	x	4719
